Bioassay records: PubChem, Center for Chemical Genomics, University of Michigan
CDC25B CDK2 inh = human CDC25B-CDK2/CyclinA binding inhibition. HTRF CDC25B-CDK2/CyclinA binding, anti-His/anti-Flag; hits give high values. z-score (test concentration not listed). 0.72% of 94,000 active;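 note: score is relative to mean and SD of negative controls; strong numbers were not always called active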
TAR Tat displ = HIV-1 TAR-Tat binding disruption | HIV-1 TAR RNA, Tat peptide displacement FRET; hits give high values | 0.6% of 100,000 active | z-score (concentration not given with the values);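 note: score is relative to mean and SD of negative controls; some compounds called inactive have numbers as strong as hits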
Starred values were filed as active, the others as inactive; . = no result given.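 Rule for the calls: active = z-score from 3 up in half or more of its runs; inactive = the rest.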

SMILES	CDC25B CDK2 inh	TAR Tat displ
COc1ccc(Nc2nc(-c3cccnc3)nc3ccccc23)cc1	-1.4	3.2
CC1(C)CC(NC(=O)CC2CCCCC2)CC(C)(C)N1	1.9	.
Cc1ccc(C)n1-c1nnc(N2CCC(C(=O)NC3CCCC3)CC2)s1	-0.28	2.2
Cc1nn(-c2ccc(N3CCCC3)nn2)c(C)c1CCC(=O)NCc1cccs1	.	0.58
CC(=O)Nc1ccccc1SCC1=NNC(=O)c2ccccc2O1	-1.8	1.5
CC(C)c1ccc(NS(=O)(=O)c2cc(Br)cnc2N)cc1	-2.5	0.63
CC1CCCCN1c1nc(-c2ccncc2)nc2ccccc12 (centres undefined)	-0.38	.
COC(=O)c1ccc(Cn2c(SCc3ccc(F)cc3)nc3ccncc32)cc1	-1.8	0.71
O=C(O)Cc1noc2ccccc12	-1.2	.
CCCNC(=O)CCC(=O)N1c2ccccc2NC2=C(C(=O)CC(C)(C)C2)C1c1cccs1 (centres undefined)	.	0.94
COc1ccccc1-c1noc(C(C)NS(=O)(=O)c2ccc(Br)cc2)n1 (centres undefined)	1.2	1
CCC1(C)Cc2c(sc3nc(SCC(=O)Nc4ccc(Br)cc4)nc(N)c23)CO1 (centres undefined)	-0.7	-1.2
CC(C(=O)O)n1c(=O)c(C(F)(F)F)nc2ccccc21 (centres undefined)	1.4	0.08
O=C(CS(=O)(=O)c1ccccc1)Nc1nc(-c2cccs2)cs1	.	0.67
CCc1ccc(Nc2c(-c3ccc4c(c3)SCC(=O)N4)c(=O)c2=O)cc1	.	1.5
CCOc1ccc(N2C(=O)C3ON(c4ccccc4)C(c4cccnc4)C3C2=O)cc1 (centres undefined)	-1.4	1.9
O=C(Nc1ccc2c(c1)OCCO2)c1ccc2cccc(O)c2n1	-1	-0.36
Cc1cccc(-c2nnc(SCc3cc(=O)c4cccc(Cl)c4[nH]3)n2C)c1	.	1
O=C(Nc1ccc2c(c1)OCO2)c1cnc2sccn2c1=O	-0.71	.
COc1ccc(-n2c(C)nsc2=NC(=Nc2ccc(C)cc2)c2ccccc2)cc1	-0.48	.

A section taken from the entries so far, as a working copy:
SMILES	CDC25B CDK2 inh	TAR Tat displ
CC(C)c1ccc(NS(=O)(=O)c2cc(Br)cnc2N)cc1	-2.5	0.63
CC1CCCCN1c1nc(-c2ccncc2)nc2ccccc12 (centres undefined)	-0.38	.
COC(=O)c1ccc(Cn2c(SCc3ccc(F)cc3)nc3ccncc32)cc1	-1.8	0.71
O=C(O)Cc1noc2ccccc12	-1.2	.
CCCNC(=O)CCC(=O)N1c2ccccc2NC2=C(C(=O)CC(C)(C)C2)C1c1cccs1 (centres undefined)	.	0.94
COc1ccccc1-c1noc(C(C)NS(=O)(=O)c2ccc(Br)cc2)n1 (centres undefined)	1.2	1
CCC1(C)Cc2c(sc3nc(SCC(=O)Nc4ccc(Br)cc4)nc(N)c23)CO1 (centres undefined)	-0.7	-1.2
CC(C(=O)O)n1c(=O)c(C(F)(F)F)nc2ccccc21 (centres undefined)	1.4	0.08
O=C(CS(=O)(=O)c1ccccc1)Nc1nc(-c2cccs2)cs1	.	0.67
CCc1ccc(Nc2c(-c3ccc4c(c3)SCC(=O)N4)c(=O)c2=O)cc1	.	1.5
CCOc1ccc(N2C(=O)C3ON(c4ccccc4)C(c4cccnc4)C3C2=O)cc1 (centres undefined)	-1.4	1.9
O=C(Nc1ccc2c(c1)OCCO2)c1ccc2cccc(O)c2n1	-1	-0.36
Cc1cccc(-c2nnc(SCc3cc(=O)c4cccc(Cl)c4[nH]3)n2C)c1	.	1
O=C(Nc1ccc2c(c1)OCO2)c1cnc2sccn2c1=O	-0.71	.
COc1ccc(-n2c(C)nsc2=NC(=Nc2ccc(C)cc2)c2ccccc2)cc1	-0.48	.

Going on with the list.
SMILES	CDC25B CDK2 inh	TAR Tat displ
CCCCOc1ccc(C2CC(=O)Nc3nc(SCC)[nH]c(=O)c32)cc1 (centres undefined)	2.8	1.2
O=C(O)CCCn1c(SCc2cc(=O)n3cc(Cl)ccc3n2)nc2ccsc2c1=O	0.56	.
O=C(NCCCN(Cc1ccco1)C1CCCC1)c1ccc2c(=O)n3c(nc2c1)CCCCC3	-0.27	2
CCOC(=O)CSc1sc(C(=O)OCC)c(-c2cccs2)c1C#N	-9.3	.
CN1CCN(c2nc(-c3ccccc3Cl)nc3ccccc23)CC1	-0.73	1.7
CCc1ccc(C2C(C(=O)OC)=C(C)NC3=C2C(=O)CCC3)cc1 (centres undefined)	-0.96	0.39
COc1ccc2c(=O)c(Oc3ccccc3Br)coc2c1	0.26	-0.95
Cc1ccc(S(=O)(=O)N2CCCC(c3nc(-c4ccccn4)no3)C2)cc1 (centres undefined)	.	2.1
Cc1cc(C)c2c(CC(=O)NC3CCS(=O)(=O)C3)coc2c1 (centres undefined)	-0.1	1.2
COC(=O)C(C)n1cnc2c(nnn2-c2cccc(Cl)c2)c1=O (centres undefined)	2	1.2
CCn1cc(C(=O)NCCCN2CCCC2=O)c(=O)c2cc(S(=O)(=O)N3CCOCC3)ccc21	-0.45	0.51
O=C(C1c2ccccc2Oc2ccccc21)N1CCCC1	-0.26	1.9
O=C(Nc1ccccc1Br)c1cnn(-c2ccccc2)c1C1CCNCC1	.	1.4
CCOc1ccc(C2Nc3ccccc3S(=O)(=O)N2Cc2ccccc2)cc1OCC (centres undefined)	-0.65	.
CC(=O)NC1=NN(C(C)=O)C2(S1)C(=O)N(C)c1ccccc12 (centres undefined)	-1.2	.
Cc1ccc(/C=N/NC(=O)/C(=C/c2ccccc2Cl)NC(=O)c2ccccc2)o1	-2.1	.
Cc1cc(C)cc(CC2CC(=O)N(CCc3ccc4c(c3)OCO4)C2=O)c1 (centres undefined)	.	1.1
O=C(Cn1c(=O)c2cccn2c2ccccc21)N1CCN(c2ccccn2)CC1	.	1.4
Cc1ccc(-n2nnc(S(=O)(=O)c3ccccc3)c2C)cc1Cl	-0.38	0.12
O=C(CCn1c(=O)oc2ccccc21)Sc1ccc(Cl)cc1Cl	-1.5	.
Cc1ccc(-c2n[nH]c(=O)c3c2CCCC3)cc1S(=O)(=O)NCc1ccco1	-1.5	-0.89
O=C(NC(=O)c1cn2cc(C(F)(F)F)cc(Cl)c2n1)Nc1ccc(Cl)cc1	-0.26	.
Cc1csc(NC(=O)Cn2cnc(S(=O)(=O)N3CCc4ccccc43)c2)n1	.	0.41
CC1(C)Cc2c(c(-c3ccco3)nc3sc4c(N5CCCCC5)ncnc4c23)CO1	-0.35	-0.76
CCOC(=O)c1cc(-c2ccc(S(=O)(=O)Nc3cc(OC)cc(OC)c3)s2)on1	.	-0.19
CCOC(=O)C(=CNc1cc(C2CC2)nn1C)C(=O)OCC	-0.46	.
Cn1nc(-c2ccccc2)c(-c2ccccc2)c(C(=O)N2CCCC2)c1=O	-2.6	0.78
COc1ccc(C2CC(c3ccco3)n3nc(N)nc3N2)cc1 (centres undefined)	-2.2	0.36
CCNc1nc(NCc2ccc(F)cc2)c2cnn(C)c2n1	.	1.1
COc1ccc(C(=O)CSc2nn3c(=O)c(C(C)(C)C)nnc3s2)cc1OC	.	-0.12
COC(=O)c1cc2sc(C)cc2n1Cc1nc(-c2cccc(Br)c2)oc1C	1.1	1.3
CCOC(=O)N1CCN(C(=O)COCc2cc(-c3cccs3)on2)CC1	.	-1.4
COC(=O)c1cccn1S(=O)(=O)c1cc(C(F)(F)F)cc(C(F)(F)F)c1	-2	.
CCCCc1nnc(SCc2cc(=O)c3c(C)ccc(C)c3[nH]2)n1C	.	1.2
CCOC(=O)c1ccc(N2C(=O)C3Sc4[nH]c(=O)sc4C(c4ccc(OC)cc4)C3C2=O)cc1 (centres undefined)	-0.55	1.6
COCCCN(CCS(=O)(=O)N1CCNCC1)S(=O)(=O)c1ccc(Cl)cc1	.	1.9
COC(=O)CCc1c[nH]c2ccccc12	-24	-3.3
Cc1ccc2[nH]c(=O)c(-c3noc(-c4ccco4)n3)cc2c1	10*	28*
COC(=O)C1=C(O)c2cccc3c2N(CCC3)C1	-0.84	.
Cc1nn(C)c(N2CCOCC2)c1[N+](=O)[O-]	-1.7	.
O=[N+]([O-])c1cc(C(F)(F)F)cc([N+](=O)[O-])c1N1CCCC1c1cccs1 (centres undefined)	-2.2	.
CSc1sccc1/C=C(/C#N)C(=O)c1ccco1	-0.3	.
O=c1c2ccccc2nc2ccc(N3CCCC4CCCCC43)nn12 (centres undefined)	-2	0.99
CCOC(=O)/C(C#N)=C/N=C(N/N=C/c1ccc2c(c1)OCO2)SC	-1.5	.
CC1=C(C(=O)OC(C)C)C(c2ccc(C)cc2)n2c(nc3ccccc32)N1 (centres undefined)	-1.5	0.65
CCc1cc2c(cc3c(=O)n(CC(=O)N4CCN(C)CC4)ncn32)s1	-1.1	1.2
COc1ccc(N2CCN(S(=O)(=O)c3ccc4c(c3)NC(=O)CCS4)CC2)cc1	.	-0.88
Cc1ccc(C(=O)N2N=C3CCCCC3C2(O)C(F)(F)F)cc1 (centres undefined)	-2.2	.
CC(C)CCN[C@H]1CS(=O)(=O)C[C@@H]1S(=O)(=O)c1cccs1	-0.02	-4.6
Cc1cn2c(=O)cc(COC(=O)c3ccccc3F)nc2s1	.	2.6
CCOC(=O)c1cc(OCC(=O)Nc2ccc3c(c2)OCO3)c2cc(Cl)ccc2n1	-0.96	0.44
CCOC(=O)c1c(CN2CCOCC2)n(C)c2ccc(O)cc12	-2.1	.
NCCNS(=O)(=O)c1cccc2c(Cl)cccc12	-0.99	.
Cc1csc2nc(COC(=O)CSc3ccc(Cl)cc3)cc(=O)n12	.	1
CC1(C)CC(=O)C2=C(C1)Nc1[nH]n(-c3ccccc3)c(=O)c1C2c1ccccc1Cl (centres undefined)	-2.7	.
Cc1nn(C)c2ncc(C(=O)Nc3ccc(F)c(Cl)c3)c(SC(C)C)c12	-2.8	.
Cc1ccc(Nc2c(-c3ccccc3)nc3nc[nH]n23)cc1	-0.96	1.8
Cc1ccc(-c2nc(CSCC(=O)N3CC(C)OC(C)C3)no2)cc1 (centres undefined)	.	0.77
Cc1nc(N2CCOCC2)c2c(C(=O)N3CCN(c4ccc(Cl)cc4)CC3)c(C)oc2n1	.	-0.92
COc1ccc(N2CC(O)=C(c3nc4ccccc4n3C)C2=N)cc1Cl	-1.3	1.1
Later entries
SMILES	CDC25B CDK2 inh	TAR Tat displ
CC(C)(C)c1cnnn1-c1ccc(NC(=O)c2cccs2)cc1	-0.28	1.2
CCNC(=O)c1cnc2sc(N3CCC(C)CC3)nn2c1=O	.	0.32
CN1C(=O)COc2ccc(C(=O)CSc3nc(-c4ccccc4)c(C#N)c(=O)[nH]3)cc21	-1.7	-1.1
C=CCOc1ccc2c(=O)c(Oc3cc(C)ccc3C)coc2c1	-1.1	-1.2
COc1cc(C2CC(=O)NC3=C2C(=O)CCC3)ccc1OCc1ccccc1 (centres undefined)	-2.7	3.2
O=C(Nc1ccc(F)cc1)c1cnc2sc(N3CCOCC3)nn2c1=O	.	1.6
CCOC(=O)c1c(NC(C)=O)sc2c1CCC2	-2.3	-0.88
O=C(c1noc2c1CCc1ccccc1-2)N1CCN(c2ccc(F)cc2)CC1	-2	.
O=C1N(Cc2ccccc2Cl)c2ccccc2C1(O)c1c[nH]c2ccccc12 (centres undefined)	-0.47	0.84
CC1Cc2cc(S(=O)(=O)NCCC3=CCCCC3)ccc2N1C(=O)C1CC1 (centres undefined)	.	0.61
Cc1nc(C)c(Oc2ccc(Cl)cc2Cl)c(N2CCCCC2)n1	-0.36	.
COc1ccc(-c2noc(COc3ccccc3C)n2)cc1OC	-0.57	.
Cc1cc(N2CCC(Cc3ccccc3)CC2)n2nc(-c3ccco3)nc2n1	.	-0.35
COCC(=O)N1CCC(c2c[nH]c3ccccc23)(c2c[nH]c3ccccc23)CC1	-1.5	-1.1
Cn1ccc2cc(S(=O)(=O)N3CCC(C(=O)NCc4cccs4)CC3)ccc21	.	0.44
Cc1cc(C)cc(OC(C)C(=O)Oc2ccc(-n3cnnn3)cc2)c1 (centres undefined)	-0.58	-0.01
CCC(C)NC(=O)c1ccc2c(=O)n(CC(C)C)c3n[nH]c(=O)n3c2c1 (centres undefined)	1.9	2.1
COc1ccc(-c2nc3cc(N)ccc3o2)cc1Br	-1.1	1.5
COC(=O)c1cc(S(=O)(=O)Nc2cc(S(=O)(=O)N(C)C)ccc2C)oc1C	-1.4	.
O=C(NC1CCCCC1)N1CCC(c2nc3ccccc3[nH]2)CC1	-2.6	2
CC1=C(C(=O)Nc2ccc(F)cc2)C(c2cccs2)C2=C(CC(C)(C)CC2=O)N1 (centres undefined)	-0.38	1.3
COC(=O)C1=CN(C2CC2)C=C(C(=O)OC)C1c1cccc(Cl)c1	-1.3	.
O=C1C2C3C=CC(C3)C2C(=O)N1c1ccc(-c2nc3ccccc3c(=O)o2)cc1 (centres undefined)	-0.34	.
Oc1ccc(-c2[nH]c(-c3cccc(O)c3)nc2-c2ccccc2)cc1	0.37	-0.93
CC1Cc2ccccc2N1S(=O)(=O)c1nnc(NC(=O)c2cccc3ccccc23)s1 (centres undefined)	-1.7	0.35
CC1(C)NC(=O)N(CC(O)COc2ccc(N3C(=O)C4CC=CCC4C3=O)cc2)C1=O (centres undefined)	0.04	-0.07
O=C(CCS(=O)(=O)c1ccc2c(c1)NC(=O)CO2)Nc1cccc(Br)c1	.	-2.2
CO[C@@H]1C(OC(=O)/C=C/C=C/C=C/C=C/C(=O)O)CC[C@]2(CO2)[C@H]1[C@@]1(C)O[C@@H]1CC=C(C)C (some centres undefined)	.	0.24
Cc1nc(NC(=O)CSc2nnc3ccc4ccccc4n23)sc1C(=O)OCC(C)C	-1.3	0.41
